NPYLR7 agonist: agonists of mosquito NPYLR7 receptor, primary screen, cell-based, Aedes aegypti, calcium fluorescence, mosquito biting behavior; Aedes aegypti neuropeptide Y-like receptor 7 (NPYLR7); HEK293T NPYLR7/Galpha15, GCaMP6s calcium fluorescence; activation, % at 10 µM; actives 0.15% (n = 270,000); in the data active means activation above about 40%;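 further: 0% = vehicle and 100% = reference agonist at the receptor; some compounds past the cut are filed as inactive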
NPYLR7 agonist max-min: recorded beside NPYLR7 agonist, whose call it bears; activation, %; measured here: Max-Min RFU normalised activation; some inactives read as strong as hits;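 span of the calcium signal over five minutes; 0% = vehicle and 100% = native peptide agonist; compound fluorescence can raise it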
* = called active by the depositor; & = joins results of further samples. These rows are one share of the data; count on the stated rates, not on these rows.

Compound	NPYLR7 agonist	NPYLR7 agonist max-min
CCOC(=O)Nc1ccc2c(c1)N(C(=O)CN(C)C)c1ccccc1CC2	-24	-31
COCCNC(=O)C1(C)CCCN(Cc2ccc(C)c(C)c2)C1 (configuration not stated)	10	2
O=C(C=Cc1ccccc1)N1CCN(S(=O)(=O)Cc2ccccc2)CC1	2	8
Cc1ccc(C)c(NC(=O)COc2coc(CN3CCc4ccccc43)cc2=O)c1	1	-2
COc1cc(CNc2nc(C)nc(N(C)C)n2)ccn1	17	1
O=C(c1cc2ccsc2n1CCCc1ccccc1)N1CCN(C/C=C/c2ccccc2)CC1	-4	10
Cc1ccccc1NC(=O)c1cccc(S(=O)(=O)Nc2cccc(F)c2)c1	-11	-18
CCSc1ccc(Cl)cc1NC(=O)c1ccc(=O)n(C)c1	0	15
COCCN(Cc1cc(OC)cc(OC)c1)CC(O)c1ccccc1 (configuration not stated)	18	26
Cc1cccc(C2=N/C(=C\c3cc4cc5c6c(c4oc3=O)CCCN6CCC5)C(=O)O2)c1	117*	159*
CN(CCC1CCCCO1)C1CCN(c2ccc(NC(=O)C3CCCC3)cc2)CC1 (configuration not stated)	5	1
O=S(=O)(NCc1ccc2c(c1)OCO2)c1ccc(Oc2ccccc2)cc1	0	5
O=C(Nc1ccc(F)cc1)c1nn(-c2ccccc2F)c(=O)n(Cc2cccc(Cl)c2)c1=O	3	9
CCCCCOc1ccc(C(=O)N2CCC(O)(c3ccccc3)CC2)cc1OCCCCC	1	-3
O=c1[nH]nc(SCc2ccccc2F)n2nc(-c3ccc(F)cc3)cc12	2	2
CN(CCCNC(=O)c1ccc2nc(-c3ccccc3)c(-c3ccccc3)nc2c1)c1ccccc1	-8	-15

In another format: entries from further up
SMILES: CN(CCCNC(=O)c1ccc2nc(-c3ccccc3)c(-c3ccccc3)nc2c1)c1ccccc1
  NPYLR7 agonist: -8; NPYLR7 agonist max-min: -15

SMILES: CN(CCC1CCCCO1)C1CCN(c2ccc(NC(=O)C3CCCC3)cc2)CC1 (configuration not stated)
  NPYLR7 agonist: 5; NPYLR7 agonist max-min: 1

SMILES: O=c1[nH]nc(SCc2ccccc2F)n2nc(-c3ccc(F)cc3)cc12
  NPYLR7 agonist: 2; NPYLR7 agonist max-min: 2

SMILES: CCCCCOc1ccc(C(=O)N2CCC(O)(c3ccccc3)CC2)cc1OCCCCC
  NPYLR7 agonist: 1; NPYLR7 agonist max-min: -3

The results go on:
Compound	NPYLR7 agonist	NPYLR7 agonist max-min
COc1ccc(CCN(C)S(=O)(=O)c2ccc(OC)c(N3CCN(C(=O)C4(c5ccc(Cl)cc5)CCCC4)CC3)c2)cc1OC	22	5
O=C(c1cccc(Cl)c1)N(CC(=O)N1CCc2sccc2C1c1ccc(Cl)cc1Cl)CC1CCCO1 (configuration not stated)	-3	-3
COc1ccc(C=NNC(=O)c2cc(-c3ccc4ccccc4c3)n[nH]2)cc1OC	6	11
NC1CCCOc2c1ccc(Cl)c2Cl (configuration not stated)	5	-1
CCn1nc(N)c2ccccc21	-12	-17
Clc1ccc(CSc2nnc(-c3cc(-c4ccccc4)nc4ccccc34)n2CC2CCCO2)cc1 (configuration not stated)	-6	-10
COc1ccccc1CNC(=O)C1(C)CCN1Cc1ccc(-c2ccccn2)cc1 (configuration not stated)	6	1
COCCN(CC(=O)N1CCc2sccc2C1c1ccc(Cl)cc1Cl)C(=O)Cc1cccs1 (configuration not stated)	-14	-14

Given with each value named: three of the compounds above.
COc1ccc(C=NNC(=O)c2cc(-c3ccc4ccccc4c3)n[nH]2)cc1OC
  NPYLR7 agonist: 6 | NPYLR7 agonist max-min: 11

NC1CCCOc2c1ccc(Cl)c2Cl (configuration not stated)
  NPYLR7 agonist: 5 | NPYLR7 agonist max-min: -1

CCn1nc(N)c2ccccc21
  NPYLR7 agonist: -12 | NPYLR7 agonist max-min: -17

Next compounds:
Compound	NPYLR7 agonist	NPYLR7 agonist max-min
Cc1cccc(NC2CCN(S(=O)(=O)c3cccnc3)CC2)c1	4	1
COc1ccc(-c2cc(N)n(-c3ccc(C(=O)N(CCC#N)CCc4ccccn4)cc3)n2)cc1	-9	-13
O=C(Cc1ccsc1)N(C/C=C/c1ccccc1)CCO	5	3
Nc1cc(-c2ccc(Cl)cc2)nn1-c1ccc(C(=O)NCc2ccco2)cc1	1	-5
CCOC(=O)Cn1c(C2CC(=O)N(c3cccc(SC)c3)C2)nc2ccccc21 (configuration not stated)	1	-2
CNS(=O)(=O)c1cc(-c2nnc(Nc3ccc(CC(N)=O)cc3)c3ccccc23)ccc1C	-17	-21
CC(C)c1nccc(-c2c(-c3ccccc3)ncn2CCc2cnc[nH]2)n1	5	1
COc1ccc2[nH]c3c(c2c1)CCN(C(=O)c1cc2ccccc2s1)C3c1ccc(OCc2ccccc2)cc1 (configuration not stated)	7	-2
NC(=O)C1(NS(=O)(=O)c2cc(Br)ccc2Br)CCCCC1	3	0
Cc1ccccc1C(CNC1CCSCC1)N(C)C (configuration not stated)	17	7
C/C(=C\c1ccco1)CN1CCC(CNS(=O)(=O)C2CC2)C1 (configuration not stated)	-1	1
C=C1C(C)(C)[C@H]2CC[C@]1(C(=O)NCCSc1nnnn1C)C2	2	0
Cc1cc(-n2c(C)cc(C(=O)COC(=O)C3CC4CCCC(C3)C4=O)c2C)no1 (configuration not stated)	7	8
Cc1cc(C(=O)COC(=O)C=Cc2ccco2)c(C)n1CC1CCCO1 (configuration not stated)	-6	-7
Cc1cc(C(=O)CSc2ncnc3sccc23)c(C)n1C1CC1	5	2
CC(C)C(NC1CSCCSC1)c1nccn1C (configuration not stated)	2	1
CSC1=NCCN1C(=O)C12CC3CC(CC(C3)C1)C2	-4	-5
CSC1CCC(NC(=O)NC(c2ccccn2)C(C)C)C1 (configuration not stated)	4	3
COc1ccc(NC(=O)c2cnn3c(C(F)(F)F)cc(-c4ccc(C)cc4)nc23)c(OC)c1	2	0
CCC(C)NS(=O)(=O)c1ccc(OC)c([N+](=O)[O-])c1 (configuration not stated)	-7	17
O=C(N=Nc1c(O)[nH]c2ccc(F)cc12)c1ccc(Br)cc1	0	-5
CCN1CCCC1CNc1ccc2c(-c3ccccc3OC)noc2n1 (configuration not stated)	2	-1
Cc1ccc(Cl)c(C(=O)N2CCOC(COc3ccc(Cl)c(C)c3)C2)c1 (configuration not stated)	20	26
O=C(NC1CCN(c2ccccc2C(=O)N2CCN(c3ccccn3)CC2)CC1)C1CCCCC1	-3	6
[O-][n+]1onc2c1ccc1nnnn12	1	-1
CCCCN1C(C2CC2)=NS(=O)(=O)c2cc([N+](=O)[O-])ccc21	2	0
CCn1cc(C(CC(=O)NCCc2ccc(OC)c(OC)c2)c2cccc(Cl)c2)c2ccccc21 (configuration not stated)	-2	2
O=C(CCN1CCOC1=O)Nc1nc2c(s1)CC(c1ccccc1)CC2 (configuration not stated)	-1	37
CC(C)Cc1noc(CSCC(=O)NC2CCS(=O)(=O)C2)n1 (configuration not stated)	18	13
N#Cc1cnc(N2CCCCCC2CC(O)c2ccccc2)c(Cl)c1 (configuration not stated)	12	11
Cc1ccc(C2=NN(C(=O)CN3CCN(Cc4ccccc4)CC3)C(c3ccco3)C2)cc1 (configuration not stated)	-2	4
O=C(CCc1ccccc1)NC1CCN(c2ccccc2C(=O)NCc2ccc(F)cc2)CC1	-10	-9
Cc1ccc(S(=O)(=O)N(C)Cc2nc(-c3ccncc3)no2)cc1	-3	13
COc1ccc(C2(Cn3ccnc3-c3cccnc3)CCCC2)cc1	-3	-5
Cc1nc(C)c(Cc2ccccc2Cl)c(N2CCN(C(=O)/C=C/c3ccccc3)CC2)n1	-1	8
Cc1ccc2c(c1)CCN1C(=O)CN(C(=S)Nc3cc(F)cc(F)c3)CC21 (configuration not stated)	21	13
c1ccc2[nH]c(SN3CCOCC3)nc2c1	-2	1
CC(=O)NCCCc1nc(-c2ccsc2)no1	16	8
CCN1CCN(C(c2cccs2)C2Sc3ncnn3C2=O)CC1 (configuration not stated)	4	2
COc1ccccc1NC(=O)COc1cc(C(C)(C)C)nn1-c1nc(C)cc(C)n1	4	8
COc1ccc(/C=C/C(=O)Nc2ccc(C)cc2C)cc1Br	4	5
CCOc1ccc(C(=O)N2CCC3(CCN(C)CC3)C2)o1	8	7
COc1ccc(CNC(=O)c2ccccc2NS(=O)(=O)c2ccc(-c3ccccc3)cc2)cc1	-2	-6
CCOC(=O)c1ccc(Nc2nnc(-c3cc4ccccc4oc3=O)s2)cc1	-13	-17
O[C@H]1CN(c2ncnc3c2CCNC3)C[C@@H]1N1CCOCC1	-7	-7
CC(C)(C)c1ccc(C(=O)CCCN2CCC(OC(c3ccccc3)c3ccccc3)CC2)cc1	-19	-23
COc1ccc(Cn2cnc3cnc(-c4ccc(F)c(Cl)c4)cc32)cc1OC	-10	-11
CC(C)CN1C(=O)N(C2Cc3ccccc3C2)C(=O)C12CCN(C1CCSC1)CC2 (configuration not stated)	25	9
O=C(c1cnc2nc[nH]n2c1=O)N1CCCCC1CCc1ccc(O)cc1 (configuration not stated)	-2	-6
Cc1ccc2c(c1)c(C1CCN(C(=O)Cc3cccs3)CC1)cn2C	22	31
CC(C(=O)N1CCN(C)CC1)N1C(=O)c2ccccc2C1=O (configuration not stated)	-6	-8
COCC1(C(=O)Nc2cccc(NC(=O)c3ccccc3OC)c2)CCC1	16	6
CCn1c(=O)c(=O)[nH]c2cc(C(=O)NC(C)c3cccc(Cl)c3)ccc21 (configuration not stated)	2	1
C=CCOc1nnc(OCC=C)c2ccccc12	0	-2
COC(=O)c1ccc(-c2noc(CN(C)Cc3nc4ccc(Cl)cc4[nH]3)n2)cc1	18	6
CC(c1cccc(-c2ncc(F)c(N(C)C)n2)c1)N1CCCC1 (configuration not stated)	2	7

(list continues)
Compound	NPYLR7 agonist	NPYLR7 agonist max-min
CC(=O)Nc1ccc(CNc2nc(NCC3CC3)nc3ccsc23)cc1	2	0
CCOC(=O)c1c(NC(=O)C=C(C)C)sc2c1CCN(c1ccc(Cl)nc1)C2	12	6
Cc1ccccc1OCc1nc(CN(C(=O)c2ccc(Cl)cc2)C(C)C)cs1	20	14
Cc1cc(C(=O)N(CCN(C)C)c2nc3c(C)ccc(Cl)c3s2)no1	3	3
Cc1[nH]c(=O)[nH]c(=O)c1CCC(=O)OCc1csc(-c2ccc(F)cc2)n1	2	4
CC(C)CCN1C(=O)N(CC(C)C)C(=O)C12CCN(C1Cc3ccccc3C1)CC2	9	2
O=C1CCCN1C(=O)CSc1nnc2n(-c3ccccc3)c(=O)c3ccccc3n12	24	19
c1ccc(-n2cncn2)c(CNC2CSCCSC2)c1	1	0
O=C(NC(c1ccccc1)c1ccccc1)C1CC=CCC1C(=O)N1CCc2c([nH]c3ccccc23)C1 (configuration not stated)	-11	-23
N#CCCn1nc(-c2ccccc2)c2c1Nc1ccccc1NC2c1cccnc1 (configuration not stated)	2	7
CN(Cc1ccccc1Cl)C(=O)c1cn(CCC2CCCCC2)nn1	22	10
CCN(CC)c1ncccc1CNC(=O)Cn1ncc2ccccc21	13	-1
COc1ccc(CN2CCC(n3nccc3NC(=O)C3CCCC3)CC2)c(OC)c1	-1	-1
COC(=O)CC[C@H]1CNC(=O)[C@@H]2[C@@H](CCN2Cc2csnn2)N1C	19	20
CC1Cc2ccccc2N1Sc1ccc([N+](=O)[O-])cc1 (configuration not stated)	3	7
C=CCOC(=O)N1CCC2(CC1)CNC(=O)C2	-5	-5
COc1ccccc1-c1cc(C(=O)N2CCN(c3ccccc3F)CC2)nc2cc(C(C)(C)C)nn12	-4&2	7&13
CCCn1ccnc1CN1CC[C@@H](c2ccc3ccccc3c2)[C@H](O)C1	1	-3
Cc1nn(-c2ccccc2)c(C)c1C=C1C(=O)N(C)C(=O)N(C)C1=O	7	4
COc1ccccc1-n1c(=O)c2ccc(Cl)cc2n(C(C)C(=O)NCc2ccc(F)cc2)c1=O (configuration not stated)	-2	1
C=CCOc1c(Cl)cc(CN(C)C(C)c2ccon2)cc1Cl (configuration not stated)	18	9
COc1ccc(Cl)c2sc(N(CCN(C)C)C(=O)c3cccc([N+](=O)[O-])c3)nc12	6	4
CCc1nn(-c2ccccc2)c(NC(=O)C2CCCCn3nnnc32)c1C (configuration not stated)	-5	-9
Cc1ccc(C(=O)NCc2nnc(SCC(=O)N3CCCc4ccccc43)n2-c2cccc(Cl)c2)cc1[N+](=O)[O-]	-6	2
CCOc1ccc(-c2noc(-c3cc(-c4ccccc4)n[nH]3)n2)cc1	-6	-14
Cc1ccc(C(=O)NCC(=O)N(C)CC(=O)Nc2ccc(Cl)cc2)s1	-2	-3
Cc1cc(C(=O)CCl)c(C)n1C(c1ccccc1)c1ccccc1	-5	-6
COc1ccc(CN(C)Cn2nc(C)n(-c3ccc(C)cc3)c2=S)cc1	12&4	4&-3
Cc1cc(C(=O)NCCC2CC3CCC2C3)ccc1-n1cnnn1 (configuration not stated)	2	-2
C=CCn1c(SCC(=O)Nc2ccc(O)cc2)nc2sc3c(c2c1=O)CCC3	2	12
Cc1cc(-c2nn(C)c(Cl)c2C2NCCc3[nH]cnc32)no1 (configuration not stated)	-4	-4
COc1ccc(-c2cnc3ncnn3c2N2CCCN(S(=O)(=O)c3cccc(Cl)c3Cl)CC2)cc1OC	25	18
COc1ccc(C2C(C(=O)OC3CCCCC3)=C(C)NC3=C2C(=O)CCC3)c(OC)c1 (configuration not stated)	2	1
CCN(C(=O)c1ccccc1N1CCC(NC(=O)c2ccco2)CC1)C1CCCCC1	17	13
Cn1cc(C(=O)NC2CCCCC2)c2[nH]c(=O)n(-c3ccc(F)cc3)c(=O)c21	1	0
